CtBP-E1A blk: CtBP/E1A binding inhibition; hit rate 0.49% among 340,000; activity change, % (test concentration not listed); AID 651724; AlphaScreen GST-E1A/His-CtBP binding, 1536-well; active compounds read low; control for the full effect not named in the record; in the data active means activity change below about -65%; inconclusive means about -30% to -65%; inactive means above about -30%; further: on the % scale 0 is the no-effect control and ±100 the full control effect
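GST-E1A and His-tagged CtBP (125 nM each as 5X stock) were preincubated with pin-transferred compound for 2 h at 37 °C in the dark, then glutathione donor and nickel acceptor beads were added for 1 h before AlphaScreen reading.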
gsp antagonist: antagonizes gsp, the McCune-Albright syndrome mutation. gsp-mutant cells, cAMP HTRF, 30 min; control for the full effect not named in the record. Potency, µM (series often up to 76.9 µM), for the others: at the highest dose activity change, negative = inhibition, most hits filed as inhibitors. hit rate 0.4% among 340,000. AID 624288; active = falling curve of any shape with a large fitted effect; inconclusive = falling curve, mostly with a smaller effect; inactive = flat or rising curve; cell line not stated here;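 further: intracellular cAMP measured with PDE inhibitor Ro 20-1724 present during compound exposure; potency means the concentration at half of the fitted maximal effect; on the % scale 0 is the no-effect control and ±100 the full control effect; nearly all actives have a fitted effect of over 65% in size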
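G418-selected cells were plated in DMEM/10% FBS for 16-24 h at 37C, then treated with compounds plus the PDE inhibitor […] (300 uM solution added) for 30 min at 37C. Intracellular cAMP was measured by HTRF after 30 min lysis at room temperature.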
gsp ag: agonists of gsp mutant (McCune-Albright syndrome) | gsp mutant cells, cAMP HTRF, 30 min; control for the full effect not named in the record | Potency, µM (titrated, usually from 76.9 µM), for the others: at the top dose activation (cAMP increase), actives largely listed as activators | hit rate 0.13% among 340,000; active = well fitted activation curve with a large enough effect; inconclusive = small, poorly fitted or top-dose-only effect, or another doubt; inactive = no such curve, though single readings can be large or run the other way; cell line not stated here;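 further: phosphodiesterase inhibitor Ro 20-1724 added with compounds to block cAMP breakdown; potency means the concentration at half of the fitted maximal effect; nearly all actives have a fitted effect of over 60% in size; about a fifth of the inactives were tested at one dose only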
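Cells in DMEM/10% FBS with G418 were pretreated with compounds in DMSO plus […] (300 uM stock) for 30 min at 37C. cAMP was measured by HTRF (cAMP-d2 plus anti-cAMP antibody-K) after 30 min at room temperature.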
D2 ag: human D2 receptor agonism in beta-arrestin assay; DiscoveRx PathHunter D2 beta-arrestin, luminescence, 90 min; 100% = 57 uM dopamine signal; activation, % (concentration not given with the values); hit rate 0.084% among 360,000; P14416; in the data active = activation above about 40%; inconclusive = about 15% to 40%; inactive = below about 15%; further: compound concentration not given in the record; the text of the record calls up to 30% inactive
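Agonist mode: compounds alone added to overnight-plated D2 PathHunter cells for 90 min at 37 C, with 57 uM final dopamine (EC100) defining full response. Beta-arrestin recruitment detected by chemiluminescent reagent, read after 1 h at ambient temperature.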
Six1-Eya2 blk: Six1/Eya2 interaction inhibition. Q15475+O00167. AlphaScreen GST-Six1/His-Eya2 binding, biochemical; active compounds read low; control for the full effect not named in the record. activity change, % (test concentration not listed). hit rate 0.56% among 360,000; in the data active = activity change below about -65%; inconclusive = about -30% to -65%; inactive = above about -30%; further: on the % scale 0 is the no-effect control and ±100 the full control effect
Target sequence (O00167 whole entry, looked up): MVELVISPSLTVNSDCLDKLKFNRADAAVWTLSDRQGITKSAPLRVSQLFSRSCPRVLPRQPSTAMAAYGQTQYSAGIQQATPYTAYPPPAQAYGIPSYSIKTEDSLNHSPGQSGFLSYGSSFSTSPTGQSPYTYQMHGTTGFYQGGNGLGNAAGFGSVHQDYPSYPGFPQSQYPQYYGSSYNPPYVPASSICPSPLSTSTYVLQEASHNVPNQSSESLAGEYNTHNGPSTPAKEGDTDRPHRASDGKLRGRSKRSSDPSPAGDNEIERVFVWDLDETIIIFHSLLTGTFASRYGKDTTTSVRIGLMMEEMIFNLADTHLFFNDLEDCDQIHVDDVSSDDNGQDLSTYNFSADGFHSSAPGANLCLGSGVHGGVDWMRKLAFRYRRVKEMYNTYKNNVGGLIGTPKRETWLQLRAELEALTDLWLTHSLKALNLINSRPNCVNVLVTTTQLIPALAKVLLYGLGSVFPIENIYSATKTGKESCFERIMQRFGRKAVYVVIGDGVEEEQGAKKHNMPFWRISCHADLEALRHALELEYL
Target sequence (Q15475 whole entry, looked up): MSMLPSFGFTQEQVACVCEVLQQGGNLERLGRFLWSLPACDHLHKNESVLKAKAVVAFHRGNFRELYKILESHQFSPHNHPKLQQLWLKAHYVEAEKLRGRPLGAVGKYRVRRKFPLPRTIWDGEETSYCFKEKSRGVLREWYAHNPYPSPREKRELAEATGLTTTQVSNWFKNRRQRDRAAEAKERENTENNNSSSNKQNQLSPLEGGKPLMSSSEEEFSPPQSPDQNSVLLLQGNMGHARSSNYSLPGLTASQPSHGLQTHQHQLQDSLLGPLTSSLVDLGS
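AlphaScreen with GST-Six1 and His-Eya2 (5X mix: 250 nM and 500 nM), glutathione donor and nickel acceptor beads; buffer 50 mM Tris pH 8.0, 300 mM NaCl, 1 mM TCEP; 1 h at 37 C in the dark.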
D2 potentiator: potentiates the human D2 dopamine receptor allosterically; potentiation, % (test concentration not listed); AID 624464; DiscoveRx D2 beta-arrestin cells, luminescence, 90 min; 100% = 57 uM dopamine signal; P14416; hit rate 0.23% among 360,000; active = potentiation of 50% or more; inconclusive = 30% to 50%; inactive = 30% or less;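 further: compound concentration not given in the record; tested on top of an EC20 dose of dopamine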
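D2 cells co-treated with compound plus 50 nM dopamine (EC20) for 90 min at 37 deg C to detect potentiation. Beta-arrestin recruitment was read as enzyme-fragment luminescence after 1 h at ambient temperature. Full response was set by 57 uM dopamine.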
Active calls of the source: *; [ ] = remark or other dose.

CCOC(=O)/C(=C\c1ccc(OC)c(OC)c1)C(=O)c1cccnc1 was read as CtBP-E1A blk 0, gsp antagonist 17%, gsp ag -29%[15.4 µM], D2 ag -1.8, Six1-Eya2 blk 1 and D2 potentiator -5.
CC(=O)c1cccc(NC(=O)c2cccc3ccccc23)c1 was read as gsp antagonist -4%, gsp ag -1%, D2 ag -2.1, Six1-Eya2 blk 2 and D2 potentiator -3.
For O=S(=O)(c1ccccc1)c1nc(-c2cccs2)oc1NCC1CCCO1 (centres undefined) the results were CtBP-E1A blk 7, gsp antagonist -2%, gsp ag -10%, D2 ag -2.2, Six1-Eya2 blk 4 and D2 potentiator -5.
For O=C(c1ccc2c(c1)OCO2)N(c1ccc(F)cc1)C1C=CS(=O)(=O)C1 (centres undefined) the results were CtBP-E1A blk 4, gsp antagonist 4%, gsp ag 1%, D2 ag 0.9, Six1-Eya2 blk 3 and D2 potentiator 5.
Screening COc1ccc(CC(=O)N2N=C(C)CC2(O)c2cccnc2)cc1OC (centres undefined) returned CtBP-E1A blk 24, gsp antagonist 11%, gsp ag -25%, D2 ag -2.7, Six1-Eya2 blk 9 and D2 potentiator -4.
`CCOc1ccc(NC(=O)CSC2=NCCN2)cc1` gave CtBP-E1A blk 5, gsp antagonist 6%, gsp ag 0%, D2 ag -2.5, Six1-Eya2 blk 13 and D2 potentiator -24.
CCN(CC(=O)Nc1cc(Cl)ccc1C)C(=O)CN1C(=O)NC2(CCCC2)C1=O was read as CtBP-E1A blk 2, gsp antagonist 10%, gsp ag 9%, D2 ag -3.1, Six1-Eya2 blk 0 and D2 potentiator -4.
Screening COCCCn1c(=NC(C)=O)c(C#N)cc2c(=O)n3cccc(C)c3nc21 returned CtBP-E1A blk 6, gsp antagonist 2%, gsp ag 36%[15.4 µM], D2 ag -0.9, Six1-Eya2 blk -1 and D2 potentiator -5.
Cn1cc(C(=O)C(=O)N2CCCc3ccccc32)c2ccccc21 was read as CtBP-E1A blk 7, gsp antagonist 8%, gsp ag -3%[15.4 µM], D2 ag 0.5, Six1-Eya2 blk 4 and D2 potentiator -5.
Screening CCCCCn1c(SCCN2CCOCC2)nc2c1c(=O)[nH]c(=O)n2C returned CtBP-E1A blk 6, gsp antagonist -4%, gsp ag 27%, D2 ag -8.6, Six1-Eya2 blk 1 and D2 potentiator 3.
C=CCSc1nc2sc3c(c2c(=O)n1-c1ccccc1)CCN(C)C3 was read as CtBP-E1A blk -6, gsp antagonist -5%, gsp ag -3%, D2 ag 5.0, Six1-Eya2 blk -9 and D2 potentiator -8.
Screening Cc1ccc(CNC(=O)[C@H](Cc2ccccc2)NC(=O)C2CCNCC2)cc1 returned CtBP-E1A blk -3, gsp antagonist 4%, gsp ag inconclusive, D2 ag -3.2, Six1-Eya2 blk 8 and D2 potentiator -12.
For CC1(C(=O)NCc2cccnc2)Cc2c(-c3cccc(C(F)(F)F)c3)ccnc2O1 (centres undefined) the results were CtBP-E1A blk 0, D2 ag -2.9, Six1-Eya2 blk -6 and D2 potentiator 14.
For O=C(/C=C/c1ccc(OC(F)F)cc1)Nc1cccc(S(=O)(=O)NC2=NCCCCC2)c1 the results were CtBP-E1A blk -12, gsp antagonist inconclusive, gsp ag -96%[inhibitor], D2 ag 3.8, Six1-Eya2 blk inconclusive and D2 potentiator 9.
For Cc1cc(N2CCN(c3ccccn3)CC2)n2cc(-c3ccccc3)nc2n1 the results were CtBP-E1A blk inconclusive, gsp antagonist -25%, gsp ag 24%, D2 ag -3.4, Six1-Eya2 blk inconclusive and D2 potentiator -17.
Cc1ccc(C(=O)Oc2ccccc2N2C(=O)C3CCCCC3C2=O)cc1 (centres undefined) was read as CtBP-E1A blk 2, gsp antagonist -8%, gsp ag -12%, D2 ag -1.4, Six1-Eya2 blk 8 and D2 potentiator -1.
Screening C/C(CC(=O)Nc1ccccc1[N+](=O)[O-])=N\NC(=O)COc1ccccc1C returned CtBP-E1A blk -10, gsp antagonist -8%, gsp ag -18%, D2 ag -0.1, Six1-Eya2 blk 1 and D2 potentiator 6.
Screening O=C(CCN1CCN(Cc2ccccc2)CC1)NNC(=O)Cc1ccc(Cl)c(Cl)c1 returned CtBP-E1A blk -12, gsp antagonist inconclusive, gsp ag 22%, D2 ag -2.1, Six1-Eya2 blk -9 and D2 potentiator -39.
`COc1ccc(NC(=O)CCCN(C)S(=O)(=O)c2ccc(C)cc2)cc1` gave CtBP-E1A blk 2, gsp antagonist -3%, gsp ag 1%, D2 ag 4.2, Six1-Eya2 blk 2 and D2 potentiator -17.
Screening COc1cccc(NC(=O)Nc2cccc(C(=O)O)c2)c1 returned CtBP-E1A blk 0, gsp antagonist 8%, gsp ag -19%[15.4 µM], D2 ag -2.6, Six1-Eya2 blk -2 and D2 potentiator 3.

Quoted from the entries so far, two compounds:
Screening COCCCn1c(=NC(C)=O)c(C#N)cc2c(=O)n3cccc(C)c3nc21 returned CtBP-E1A blk 6, gsp antagonist 2%, gsp ag 36%[15.4 µM], D2 ag -0.9, Six1-Eya2 blk -1 and D2 potentiator -5.
Cn1cc(C(=O)C(=O)N2CCCc3ccccc32)c2ccccc21 was read as CtBP-E1A blk 7, gsp antagonist 8%, gsp ag -3%[15.4 µM], D2 ag 0.5, Six1-Eya2 blk 4 and D2 potentiator -5.

(listing goes on)
Screening COCCN1C(=O)c2cc(C(=O)Nc3ccc(OC)c(OC)c3)ccc2C1Nc1ccc(OC)c(OC)c1 (centres undefined) returned CtBP-E1A blk -9, gsp antagonist -9%, gsp ag -6%, D2 ag -1.2, Six1-Eya2 blk -8 and D2 potentiator -4.
`CCOC(=O)N1CCC(N2C(=O)c3ccccc3C2Nc2cc(C(=O)OC)cc(C(=O)OC)c2)CC1` (centres undefined) gave CtBP-E1A blk -5, gsp antagonist -18%, gsp ag -51%[inhibitor], D2 ag -4.7, Six1-Eya2 blk -2 and D2 potentiator -4.
For Cc1ccc(S(=O)(=O)N2CCN(CC(=O)N/N=C\C(Cl)=C\c3ccccc3)CC2)cc1 the results were CtBP-E1A blk -25, gsp antagonist -2%, gsp ag -32%[inhibitor], D2 ag -1.0, Six1-Eya2 blk -2 and D2 potentiator 12.
COc1ccc(F)c(CN2CCC(N3CCC(C(=O)N4CCOCC4)CC3)CC2)c1 was read as CtBP-E1A blk 4, gsp antagonist 11%, gsp ag 1%[15.4 µM], D2 ag 1.7, Six1-Eya2 blk 1 and D2 potentiator -1.
Cc1cc(/C=N/NC(=O)c2cccs2)c(C)n1-c1cnccn1 was read as CtBP-E1A blk -2, gsp antagonist 7%, gsp ag inconclusive, D2 ag -2.6, Six1-Eya2 blk -11 and D2 potentiator -4.
O=C(O)CC12CC3CC(C1)CC(n1ncc(NCC4CCCO4)c(Cl)c1=O)(C3)C2 (centres undefined) was read as CtBP-E1A blk 4, gsp antagonist 7%, gsp ag 13%, D2 ag 0.7, Six1-Eya2 blk -9 and D2 potentiator -11.
For O=C(COC(=O)CNC(=O)c1cccc(F)c1)NCCC1=CCCCC1 the results were CtBP-E1A blk 9, gsp antagonist -7%, gsp ag 0%, D2 ag -3.2, Six1-Eya2 blk 3 and D2 potentiator -1.
Cc1cn(C2CC3OCC3O2)c(=O)[nH]c1=O (centres undefined) was read as CtBP-E1A blk 5, gsp antagonist 1%, gsp ag 7%, D2 ag -2.3, Six1-Eya2 blk 1 and D2 potentiator 3.
Screening CCn1cc(CNC(=O)C2CCC(=O)N(CCc3cccc(F)c3)C2)cn1 (centres undefined) returned CtBP-E1A blk 7, gsp antagonist 7%, gsp ag -9%, D2 ag -3.9, Six1-Eya2 blk 6 and D2 potentiator -14.
For CCSC1OC(C(COC(C)=O)OC(C)=O)C(OC(C)=O)C1NC(C)=S (centres undefined) the results were CtBP-E1A blk -5, gsp antagonist 4%, gsp ag 1%, D2 ag 0.6, Six1-Eya2 blk 4 and D2 potentiator -4.
Nc1nnc(SCC(=O)NCc2ccc3c(c2)OCO3)s1 was read as CtBP-E1A blk -5, gsp antagonist 3%, gsp ag -22%, D2 ag -1.5, Six1-Eya2 blk -3 and D2 potentiator -5.
N[C@@H](Cc1ccccc1)C(=O)N1CCC(C(=O)N[C@@H](CCC(=O)O)C(=O)O)CC1 was read as gsp antagonist 1%, gsp ag 0%, D2 ag -1.9, Six1-Eya2 blk 11 and D2 potentiator -5.
Screening Cc1ccccc1NC(=O)C1C2CCC(O2)C1C(=O)O (centres undefined) returned CtBP-E1A blk 0, gsp antagonist 0%, gsp ag -73%[inhibitor], D2 ag 2.0, Six1-Eya2 blk 0 and D2 potentiator -19.
Screening Cc1ccc(S(=O)(=O)c2c(COC(=O)c3ccccc3Cl)c(-c3ccccc3)nn2C)cc1 returned CtBP-E1A blk -3, gsp antagonist 0%, gsp ag -7%, D2 ag 3.5, Six1-Eya2 blk 6 and D2 potentiator -13.
Screening CN(N)c1ccc2c(C(F)(F)F)cc(C(F)(F)F)nc2n1 returned CtBP-E1A blk 2, gsp antagonist -3%, gsp ag 6%[15.4 µM], D2 ag -3.0, Six1-Eya2 blk -1 and D2 potentiator -3.
For O=C(OCC(=O)N1CCc2ccccc21)c1cccc(S(=O)(=O)N2CCCc3ccccc32)c1 the results were CtBP-E1A blk -8, gsp antagonist 2%, gsp ag 5%, D2 ag -0.5, Six1-Eya2 blk 6 and D2 potentiator 1.
CC(OC(=O)Cn1cnc2c1c(=O)n(C)c(=O)n2C)C(=O)Nc1ccc(Cl)cc1 (centres undefined) was read as CtBP-E1A blk -10, gsp antagonist -6%, gsp ag -13%[15.4 µM], D2 ag 0.4, Six1-Eya2 blk 1 and D2 potentiator 0.
Cc1noc(C)c1S(=O)(=O)N1CCC(C(=O)NCCC2=CCCCC2)CC1 was read as CtBP-E1A blk -5, gsp antagonist 9%, gsp ag 2%, D2 ag -3.4, Six1-Eya2 blk -1 and D2 potentiator -12.
COc1ccc(CNC(=O)C(=O)NCCC2CCCCN2S(=O)(=O)c2cccs2)cc1 (centres undefined) was read as CtBP-E1A blk 1, gsp antagonist -11%, gsp ag 4%[15.4 µM], D2 ag -2.9, Six1-Eya2 blk -16 and D2 potentiator -17.
Screening Cc1ccc(CNC(=O)[C@H](C)NC(=O)C2CCN(C(=O)[C@@H]3CCCN3C(=O)OC(C)(C)C)CC2)cc1 returned CtBP-E1A blk 9, gsp antagonist 7%, D2 ag -3.7, Six1-Eya2 blk 5 and D2 potentiator -3.
`Cc1c(Cl)cccc1NC(=O)CCNC(=O)N1CC(=O)Nc2ccccc21` gave CtBP-E1A blk 2, gsp antagonist 18%, gsp ag 21%, D2 ag -5.9, Six1-Eya2 blk 0 and D2 potentiator -27.
Screening CC(=O)N1CCN(C2=NC(=O)/C(=C/c3ccc(OS(=O)(=O)c4ccccc4)cc3)S2)CC1 returned CtBP-E1A blk 1, gsp antagonist -15%, gsp ag inconclusive, D2 ag -3.0, Six1-Eya2 blk 3 and D2 potentiator -8.
`COc1ccccc1C(=O)NNC(=O)c1ccc(NC(=O)c2ccccc2)cc1` gave CtBP-E1A blk 5, gsp antagonist 3%, gsp ag -33%[inhibitor], D2 ag 0.7, Six1-Eya2 blk -13 and D2 potentiator -2.

Screens (PubChem BioAssay)

An unsorted share of the library. Share with any hit: about 1.4%.
